Mtb hypoxia rep: inhibitors of hypoxia-regulated fluorescent reporter in Mycobacterium tuberculosis; M. tuberculosis hypoxia-regulated fluorescent reporter, fluorescence; fluorescence inhibition, % (test concentration not listed); 300,000 tested, 0.1% active; AID 1159583;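 active means 35 to 45% if threefold the growth effect, above 45% if 1.5-fold the growth effect; inactive means the rest, general growth blockers included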;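 further: wells of about 50 µL received 100 nL stock; 0% = vehicle wells and 100% = reference inhibitor wells; whole bacteria with a GFP reporter of the hypoxia response; strong numbers were not always called active; many hits fall short of the cut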
Sa ugtP lethal: compounds lethal to S. aureus RN4220 ugtP deletion mutant. OD600 growth, 16 h; some inactives read as strong as hits. growth inhibition, % (concentration not given with the values). 330,000 tested, 0.54% active. AID 1259309;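 active means z-score under -3 and OD600 up to 0.15 on both plates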;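 further: plate controls were untreated wells for no effect and antibiotic for full effect; wells of about 80 µL received 100 nL stock; the first replicate is given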
PrP UTR inh: inhibition of PrP 5' UTR reporter expression. cell-based PrP 5' UTR mRNA reporter, plate reader. inhibition, % (no concentration beside the values). 340,000 tested, 0.35% active. AID 488862;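 active means every replicate at 50% or more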;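 further: 0 = median of the neutral control wells; tested in H4 reporter cells; numbers are from one replicate; inactives centre near -14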
BJeLR viability: BJeLR cell viability loss; BJeLR (HRASV12) viability, CellTiter-Glo ATP luminescence, 48 h; reference of the scale not given here; inhibition, % (concentration not given with the values); 300,000 tested, 0.17% active;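 active means replicate mean above 50%; inconclusive means above 50% but judged a plate artefact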;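 further: 50 nL library stock added to about 25 µL; numbers are from one replicate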
Sa RN4220 lethal: S. aureus RN4220 growth inhibition; inhibition, % (concentration not given with the values); OD600, 16 h; 330,000 tested, 0.33% active;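 active means z-score of -3 or lower and OD600 up to 0.18 on both plates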;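 further: plate controls were untreated cells for no effect and reference antibiotic for full effect; stock transfer was 100 nL into about 80 µL; one replicate is shown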
Autofluor counter: compound fluorescence in toxin protease inhibitor counterscreen; compound autofluorescence counterscreen, microsphere flow cytometry; hits give high values; fluorescence intensity (concentration not given with the values); 360,000 tested, 3.1% active; AID 624483;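 active means at least 3 SD above the mean of all compounds, about 16000 in these data; inconclusive means too few beads counted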;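 further: 100 nL of 1 mM stock went into each well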
Mtb hypoxia rep growth: further read-out of Mtb hypoxia rep, marked with its call; growth inhibition, %; measured here: M. tuberculosis growth (absorbance);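 0% = vehicle and 100% = reference antibiotic; read after six days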
* hit, by the source's call; ? = inconclusive; . = no result given; & = joins results of further samples.

SMILES	Mtb hypoxia rep	Mtb hypoxia rep growth	Sa ugtP lethal	PrP UTR inh	BJeLR viability	Sa RN4220 lethal	Autofluor counter
CCOC(=O)CNC(=O)CSc1nc2cccnc2n1Cc1ccccc1	.	.	7	-14	3	1.4	4269
CC(=O)c1cc(CN2CCC(n3nccc3NC(=O)c3ccccc3C)CC2)cs1	2	3	7	-2	-7	1.1	5912
C=CCOn1c(C)c(C(C)=O)c2c3no[n+]([O-])c3ccc21	2	3	-3	-2	4	8.9	4175
CCOc1ccc(C(=O)NCC(=O)NCCCn2nc(C)cc2C)cc1OCC	-6	8	-6	-21	-5	-2.5	5602
COc1ccccc1CNC(=O)COc1ccc(C)cc1	15	6	3	-19	-3	6.8	2896
O=C(NCc1ccco1)/C(=C/c1ccco1)NC(=O)c1ccc(Br)o1	13	11	6	-15	-4	0.6	10639
CCCCCn1nc(C(=O)OCc2nc(N)nc(Nc3ccccc3)n2)c2ccccc2c1=O	5	-1	-6	-12	.	4.7	4148
CCOc1cc(/C=N/NC(=O)C(=O)N/N=C/c2ccc(O)c(OCC)c2)ccc1O	.	.	.	-20	7	.	3870
Cc1cc([N+](=O)[O-])nn1CC(=O)Nc1cnc2ccccc2c1	9	18	3	-27	1	1.7	5024
Cc1ccc(-c2csc(N3CCC(NS(=O)(=O)c4ccc5c(c4)OCCO5)CC3)n2)cc1	9	5	3	-15	10	-6.8	3563
O=C(CN1C(=O)NC2(CCCCCC2)C1=O)N1CCC(Cc2ccccc2)CC1	-9	-4	-3	10	3	-0.3	5237
C[C@H](NC(=O)c1nc[nH]c1C(=O)NC1CCN(C(=O)OC(C)(C)C)CC1)C(=O)OCc1ccccc1	.	.	.	-25	1	.	4452
O=c1n(Cc2ccccc2Cl)nc2n1-c1ccccc1SC2	-3	12	12	-42	-1	2.5	6490
COc1ccc(S(=O)(=O)N(Cc2cccnc2)Cc2cc3ccccc3[nH]c2=O)cc1	-1	-2	3	0	-4	2.2	5822
CC1CCN(c2nc(Cl)nc(Nc3ccc([N+](=O)[O-])cc3)n2)CC1	2	4	-11	-8	-9	-1.3	2276
COc1ccc(C)cc1N(CC(=O)NCCN1CCOCC1)S(=O)(=O)c1ccccc1	-4	6	2	10	2	2.0	5761
O=C(COc1ccc([N+](=O)[O-])cc1)Nn1cnnc1	1	10	1	-23	5	1.4	4564
COc1ccc(OC)c(S(=O)(=O)NCCCN2CCOCC2)c1	-1	2	2	-15	.	-0.5	8495
O=C(Nc1ccc2nsnc2c1)NC1CCCCC1	.	.	.	-84	-2	.	2693
C[C@]12CC[C@H](N)CC1=CCC1C2CC[C@@]2(C)C1CC[C@@H]2O (stereo partly specified)	-6	4	1	-4	.	2.1	4228

Structures above containing a halogen:
SMILES	Mtb hypoxia rep	Mtb hypoxia rep growth	Sa ugtP lethal	PrP UTR inh	BJeLR viability	Sa RN4220 lethal	Autofluor counter
O=C(NCc1ccco1)/C(=C/c1ccco1)NC(=O)c1ccc(Br)o1	13	11	6	-15	-4	0.6	10639
O=c1n(Cc2ccccc2Cl)nc2n1-c1ccccc1SC2	-3	12	12	-42	-1	2.5	6490
CC1CCN(c2nc(Cl)nc(Nc3ccc([N+](=O)[O-])cc3)n2)CC1	2	4	-11	-8	-9	-1.3	2276

Further results follow:
SMILES	Mtb hypoxia rep	Mtb hypoxia rep growth	Sa ugtP lethal	PrP UTR inh	BJeLR viability	Sa RN4220 lethal	Autofluor counter
COc1ccc(-c2[nH]ncc2CN2CCC(C(=O)c3ccc(F)cc3)CC2)cc1	5	7	0	-13	6	0.9	.
S=c1nc(Cc2ccc(Cl)cc2)[nH]c2ccccc12	15	-6	12	-16	-3	-9.8	3395
COc1cc(C=NNC(=O)C(=O)NCc2cccnc2)ccc1O	-1	3	4	.	.	2.8	.
Cc1cc2c(cc1S(=O)(=O)N(C)Cc1ccccc1)n(C)c(=O)c(=O)n2C	.	.	5	-10	-13	2.5	5790
Cc1ccc(NC(=O)CNC(=O)c2ccccc2F)cc1Cl	4	-2	-2	-42	8	-2.9	6921
N#C/C(=C(/O)c1cccc(F)c1)c1nc2ccccc2s1	-1	2	81	-32	5	80	3714
CC1(C)Cc2cccc(OCC(=O)OCC(=O)c3ccccc3)c2O1	-3	1	13	-10	.	5.4	2891
O=C(NCCCN1CCCC1)c1ccc(CS(=O)(=O)c2ccc(Cl)cc2)o1	0	-3	3	-10	-11	0.3	4955
O=C(c1ccc(F)cc1)c1cnc(Nc2ccccc2)s1	10	13	-2	-103	7	5.4	4016
CC(C)CCNC(=O)C1CC(=O)N(C2CCCC2)C1 (stereo unspecified)	6	2	4	-8	-10	0.3	11006
CC(C)CC1Nc2ncnc(N3CCN(c4ccccn4)CC3)c2N(Cc2ccc(Br)cc2)C1=O (stereo unspecified)	-13	2	-6	-8	-7	7.0	3772&5466
O=C1C2CCCN2C(c2ccccc2)N1c1nccs1 (stereo unspecified)	6	4	5	-19	-2	3.3	4039
OCCNCCOc1ccccc1F	.	.	.	-14	-5	.	2836
O=C(Oc1ccc2[nH]cc(CCN3C(=O)c4ccccc4C3=O)c2c1)c1ccco1	11	8	4	-35	-5	13	9870
COc1ccc(NC(=O)CCc2ccccc2)cc1S(=O)(=O)N1CCOCC1	4	3	12	-20	.	2.6	.
CC(=O)NS(=O)(=O)c1ccc(NC(=O)CC(C)c2ccccc2)cc1 (stereo unspecified)	2	5	-3	-45	11	-0.9	4254
N#Cc1ccsc1NC(=O)CN1CCN(c2ccccc2O)CC1	-11	-1	15	-15	-19	6.8	2455
CCOc1nc(NCCN2CCOCC2)nc(Nc2ccc(C)cc2)n1	6	12	4	-16	1	4.8	4446
COc1ccc(C(=S)N2CCN(c3ccccc3C)CC2)cc1OC	-8	6	-2	7	.	3.5	3445
CC(=O)Nc1ccc(SCC(=O)Nc2oc(C)c3c(C)n[nH]c(=O)c23)cc1	5	2	12	-24	-3	3.3	?
Cc1ccc2nc(COC(=O)c3cnccn3)cc(=O)n2c1	-5	-3	1	-20	.	7.8	2951
CCN(CC(=O)Nc1c(F)cccc1F)C(=O)CCc1nc2cc(S(=O)(=O)N3CCOCC3)ccc2n1C	9	3	7	-9	0	1.6	5212
CCc1ccc(S(=O)(=O)Nc2cc3c(cc2N2CCOCC2)n(C)c(=O)c(=O)n3C)cc1	-4	-6	2	-9	3	1.2	5843
O=C(Cn1c(=O)c2c(ncn2Cc2ccccc2)n(Cc2ccccc2)c1=O)N1CCc2ccccc21	-5	2	-11	.	-6	-3.9	10519
COc1ccc(NC(=O)c2cccc(N3C(=O)C4C5CCC(C5)C4C3=O)c2)cc1 (stereo unspecified)	2	-1	4	-8	1	0.3	6148
O=C(O)c1cccc(N(CCO)CCO)c1	-4	0	4	-16	-4	6.7	6370
CC(=O)N/C(=C\c1ccccc1)C(=O)OCc1cc(C)ccc1C	12	3	-3	-9	-4	2.0	3087
CC(=NO)C(=O)OC1CC(C)CCC1C(C)C (stereo unspecified)	11	4	-3	.	.	15	.
COc1cccc(OCC(=O)NC2CCCCCC2)c1	.	.	5	-28	.	2.6	6278
CSc1ccc(NC(=O)NCc2ccccc2)cc1	3	9	8	-71	3	-2.3	4365
Cc1ccc(-n2nc3c(=O)n(CC(=O)NCc4cccs4)nc(C)c3c2C)cc1	2	10	2	-11	4	1.3	5153
O=C(NCCS(=O)(=O)NC1CCCCC1)c1ccccc1	.	.	.	-10	20	.	7029
CC(=NNC(=O)CNC(=O)c1cccnc1)c1cccc([N+](=O)[O-])c1	-12	0	1	.	.	0.9	.
Cc1ccc(CN2CCN(N=Cc3cc(Br)cc(Br)c3O)CC2)cc1	7	7	19	.	.	-0.6	.
O=C(O)C1CCCN1S(=O)(=O)c1ccc2c(c1)CCC2 (stereo unspecified)	0	10	-2	-23	4	-1.2	7806
Cc1[nH]c2ccccc2c1SCC(=O)N1CCN(c2ccccc2)CC1	3	10	-8	1	-4	-7.6	5843
COc1ccc2c(c1)C(c1ccccc1)NC(=O)C2 (stereo unspecified)	21	9	4	-25	10	7.4	2907
CC(C(=O)NC1CCCC1)N(c1ccc(Oc2ccccc2)cc1)S(C)(=O)=O (stereo unspecified)	8	1	-2	-8	1	5.8	4135
COC(=O)CCC(=O)Nc1nccs1	-3	7	0	-8	3	3.5	3412
CCCCn1c(-c2nn(C)cc2Cl)n[nH]c1=S	.	.	-4	-20	-2	8.2	3265
COc1ccc(NC(=O)Nc2ccon2)cc1OC	11	1	-2	-6	1	2.9	5984
COC(=O)C(O)(c1ccc(N(C)C(=O)OC(C)C)cc1)C(F)(F)F (stereo unspecified)	0	-2	0	2	3	1.8	8904
COc1cc(C2OCC3C(c4ccc5c(c4)OCO5)OCC23)ccc1O (stereo unspecified)	12	-1	-7	.	.	8.1	.
CCOc1ccc(CNC(=O)C2CCCN(S(C)(=O)=O)C2)cc1OC (stereo unspecified)	6	5	3	-59	5	5.0	8507
CCc1ccc(CN(C)C(=O)C2CCC(=O)N(CCc3ccc(OC)cc3)C2)nc1 (stereo unspecified)	5	-5	9	-27	1	1.8	.
COc1ccc(C2CC(=O)c3cc(OC)c(OC)cc32)cc1OC (stereo unspecified)	15	8	6	-3	2	2.7	6493
CN1CCN(c2cn[nH]c(=O)c2Cl)CC1	-1	9	5	-7	7	1.8	4424
O=C(Nc1nc2c(F)cccc2s1)c1ccc([N+](=O)[O-])o1	3	1	74	-11	-10	-0.9	4865
CCc1ccc(N/C(SCc2cccc(F)c2)=C(/C#N)C(=O)NCc2ccco2)cc1	8	7	68	-4	0	-0.4	8446
CCOC(=O)C1C(=O)CC(C)(O)C(C(=O)OCC)C1/C=C/c1ccccc1 (stereo unspecified)	19	17	0	1	.	-7.3	2870
The list goes on:
SMILES	Mtb hypoxia rep	Mtb hypoxia rep growth	Sa ugtP lethal	PrP UTR inh	BJeLR viability	Sa RN4220 lethal	Autofluor counter
CSc1nnc(N2C(=O)C(O)=C(C(=O)c3ccco3)C2c2cccc(Cl)c2)s1 (stereo unspecified)	-10	-5	49	-19	-10	65	5570
Cc1cc(C)c2c(-n3cccc3)c(C(=O)NNS(=O)(=O)c3ccccc3)sc2n1	-2	-5	-19	-23	-16	9.4	6808
Cc1ccc(S(=O)(=O)Nc2cncnc2NS(=O)(=O)c2ccc(C)cc2)cc1	9	14	-7	-18	.	-1.0	3612
Cc1cccc(C)c1NC(=O)CN(C)C(=O)c1ccc2c(=O)n3c(nc2c1)CCC3	-2	-5	3	5	.	-0.1	3955
CC(Sc1nnc(-c2ccco2)n1C)C(=O)Nc1ccc(N2CCOCC2)cc1 (stereo unspecified)	-14	1	12	-30	.	6.0	?
O=C1CCN(Cc2ccc(Br)cc2)CCN1C(CO)c1ccccc1 (stereo unspecified)	-8	-11	-3	.	.	1.9	.
COc1ccc2c(CC(=O)OCC(=O)Nc3ccccc3[N+](=O)[O-])coc2c1	16	7	15	-42	-7	5.9	2568
Cc1cc(C)cc(C(=O)N(CCc2ccccc2)C2=CC3CCC(C2)N3C)c1 (stereo unspecified)	2	-2	9	-149	-5	-3.3	2586
Cc1nn(C)c(NC(=O)c2ccc([N+](=O)[O-])cc2)c1Cl	-10	3	3	-20	-3	5.9	6522
COc1ccc(N2C(=O)/C(=C/C=C/c3ccccc3[N+](=O)[O-])C(=O)NC2=S)cc1	1	2	3	.	-1	15	.

Entries of single compounds as entered above. Values in the order: Mtb hypoxia rep	Mtb hypoxia rep growth	Sa ugtP lethal	PrP UTR inh	BJeLR viability	Sa RN4220 lethal	Autofluor counter
Shown for COc1ccc(C)cc1N(CC(=O)NCCN1CCOCC1)S(=O)(=O)c1ccccc1 → -4	6	2	10	2	2.0	5761
Shown for COc1ccccc1CNC(=O)COc1ccc(C)cc1 → 15	6	3	-19	-3	6.8	2896

New compounds follow
SMILES	Mtb hypoxia rep	Mtb hypoxia rep growth	Sa ugtP lethal	PrP UTR inh	BJeLR viability	Sa RN4220 lethal	Autofluor counter
Cc1cc2c(cc1S(N)(=O)=O)S(=O)(=O)CCC2	5	-4	1	-1	.	3.7	5589
COCCCNC(=S)Nc1ccc(N2CCCCC2)cc1	23	17	6	-21	6	5.6	4265
CCN(C(=O)CSc1nncs1)c1c(N)n(Cc2ccccc2)c(=O)[nH]c1=O	3	6	-2	-29	0	-0.8	4030
CCN(CCCNC(=O)C1CCC(=O)N1C1CCCC1)c1cccc(C)c1 (stereo unspecified)	7	6	3	-4	-11	6.0	3540
Cc1cc(=O)oc2c(C)c(OCC(=O)NC3CC(C)(C)NC(C)(C)C3)ccc12	8	1	7	-6	12	4.2	6187
O=[N+]([O-])c1ccc2nc(-c3ccc(OC(F)F)cc3)cn2c1	-9	6	-11	-42	2	-1.9	4552
COc1ccccc1Nc1ncccc1C(=O)O	12	9	-2	-17	3	5.4	4581

High-throughput results as filed in PubChem.
